# CBX7 inh: blocks human CBX7 binding to H3K27me3 peptide; normalised signal (fraction of DMSO) (test concentration not listed); O95931; AlphaScreen His6-CBX7 / biotin-H3K27me3 peptide binding; hits give low values; actives 1.1% (n = 66,000); in the data active = normalised signal below about 0.5;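 note: 100 nL library stock added to about 20 µL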
# Target sequence (O95931 whole entry, looked up): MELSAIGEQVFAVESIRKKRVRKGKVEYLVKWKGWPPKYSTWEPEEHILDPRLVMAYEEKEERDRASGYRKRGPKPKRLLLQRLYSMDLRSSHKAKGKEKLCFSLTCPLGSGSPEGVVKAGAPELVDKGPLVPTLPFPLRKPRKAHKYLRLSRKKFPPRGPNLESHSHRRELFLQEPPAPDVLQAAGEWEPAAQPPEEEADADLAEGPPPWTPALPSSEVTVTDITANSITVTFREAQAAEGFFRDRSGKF
# CBX7 inh z-score: also measured in CBX7 inh; calls as there; z-score; measured here: z-score of CBX7 signal; some inactives read as strong as hits; reference of the scale not given here;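 same signal on another scale; lower means less binding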
# * marks the source's active call; other numbers are inactive results. This is a subset; the hit share may differ from the screen's.
SMILES,CBX7 inh,CBX7 inh z-score
COc1cccc(-n2c(-c3ccccc3F)nc3c(cnn3-c3ccc(C)cc3)c2=O)c1,0.6,-5.1
COc1ccc(-c2nn(C)c3sc(C(=O)Nc4cccc(F)c4)cc23)cc1OC,1.2,3.7
Cc1cc(C)cc(Nc2cc(C(=O)NCc3ccccc3Cl)c3ccccc3n2)c1,1.1,2.3
CCN(CC)c1ccc(C2C(C(=O)Nc3ccccn3)=C(C)NC3=C2C(=O)CCC3)cc1 (stereo not given),0.84,-0.33
Cc1cccc(CCNC(=O)CN(C)S(=O)(=O)c2ccc3c(c2)n(C)c(=O)c(=O)n3C)c1,1.1,2.3
c1cncc(-c2noc(-c3ccc4c(c3)OCO4)n2)c1,0.97,-0.53
CCSc1oc(-c2ccc(C)cc2)nc1S(=O)(=O)c1ccccc1,1,-0.024
Cc1nn2c(C(F)(F)F)c3c(nc2c1-c1ccc(Cl)cc1)CCC3,1.1,1.1
COc1ccc(CN2CC(C(=O)NCC3CCCO3)CC2=O)cc1 (stereo not given),0.99,-0.42
Cc1ccc(C2C3=C(CCCC3=O)Nc3ccccc3N2C(=O)c2ccccc2)cc1 (stereo not given),1.1,0.63
O=C(CC1Sc2ccccc2NC1=O)Nc1ccc(F)cc1 (stereo not given),1,0.26
Cc1ccccc1-c1nc(CS(=O)(=O)CC(=O)N2CCCC2)c(C)o1,0.99,-0.27
CC(C)(C)c1ccc(-c2nnc(NC(=O)c3ccc4c(c3)OCO4)s2)cc1,0.98,-0.36
CCCCCn1c(=O)[nH]c2cc(C(=O)N3CCN(c4cccc(C(F)(F)F)c4)CC3)ccc2c1=O,1,0.52
Cc1cccc(OCc2nc(-c3ccc(Cl)cc3)no2)c1,1.3,3.9
COc1ccc(N2C(=O)CC(N(CCc3ccc(OC)c(OC)c3)C(=O)c3ccccc3)C2=O)cc1 (stereo not given),1,0.36
Cc1cccc(-n2ccnc2SCC(=O)Nc2cccc(F)c2)c1C,0.91,-0.091
Cc1ccc(-c2nc3cc(C)ccn3c2NC(=O)c2ccc(Cl)cc2)cc1,0.97,-0.89
Cc1ccc(NC(=O)N2CCN(C/C=C/c3ccccc3)CC2)cc1,1.2,1.9
CCNc1nnc(-c2nn(C)c(C)c2Cl)s1,0.94,-1.8
Cc1oc(-c2ccc(Cl)cc2)nc1CN1CCCC(C(=O)NC2CCCc3ccccc32)C1 (stereo not given),1,0.76
Cc1ccc(-n2c3c(cc(C(=O)Nc4ccc(Cl)cc4)c2=O)C(=O)CCC3)cc1,1.2,1.9
COc1cc(C(=O)Nc2nc(-c3ccccn3)cs2)cc(OC)c1OC,0*,-28*
Cc1nc2cc(-c3cccc(F)c3)nn2c(C)c1CCC(=O)Nc1ccc(Br)cc1,0.93,-1.1
Cc1ccc(CCNC(=O)c2cc(Sc3ccc(C)cc3)nc3ccccc23)cc1,0.96,-1.1
CCOc1ccc(CCNC(=O)CC2C(=O)N(Cc3ccccc3)C(C)c3nc4ccccc4n32)cc1 (stereo not given),1.1,1.4
O=C(CC1C(=O)N(c2ccc(F)cc2)C(=O)N1Cc1ccc(F)cc1)Nc1ccc(F)cc1 (stereo not given),0.96,-0.16
CCOc1ccc(C(=O)Nc2cc(-c3nc4cc(C)ccc4o3)ccc2Cl)cc1Br,0.99,-0.2
COc1ccc(CNCCC2(c3ccc(OC)cc3)CCOC(C)(C)C2)cc1 (stereo not given),1,0.58
Brc1cccc(-c2nnc(SC(c3ccccc3)c3ccccc3)o2)c1,1.1,1.1
CCc1nc(SCC(=O)Nc2ccc(Br)cc2)c(C#N)c2c1CCCC2,1.5,0.96
CCc1cccc(Nc2cc(C)nc3ncnn23)c1,1,0.39
CC(C)Cn1cc(C(=O)NCc2ccccn2)c2c3ccccc3n(C)c2c1=O,0.98,-0.27
Cc1ccc(NC(=O)C(C)N2C(=O)c3ccccc3C2=O)cc1 (stereo not given),1.4,3
CCC(C(=O)Nc1c2c(nn1-c1ccccc1C)CSC2)c1ccccc1 (stereo not given),1,0.64
CCCCCCCNC(=O)c1c[nH]c2ccc(S(=O)(=O)N(C)c3ccc(Cl)cc3)cc2c1=O,0.95,-0.54
Cc1ccc(C)c(CSc2nc3ccncc3n2CC(=O)Nc2ccc(Br)cc2F)c1,0.98,-0.79
O=C(CCNS(=O)(=O)c1ccc2c(c1)CCC(=O)N2)Nc1ccc(F)c(F)c1,1.1,2.3
CCN(C(=O)CCc1nc(-c2ccccc2F)no1)c1ccccc1,1,1.3
COc1ccc(NC(=O)C2CCN(S(=O)(=O)c3cnc[nH]3)CC2)cc1,1.1,0.84
Oc1ccc(C2(c3ccc(Br)cc3)CCCCC2)cc1,1,0.49
CCOC(=O)c1ccc(NCc2nc3ccccc3n2CCOc2ccccc2Cl)cc1,0.97,-1.1
CCOc1ccc2c(c1)c(=O)c(C(=O)c1ccc(OC)cc1)cn2Cc1ccc(C)cc1,0.69,-1.1
COCCNC(=O)Cn1nc(-c2ccc(C)cc2)ccc1=O,1,2.3
CCC(C)NC(=O)CN1C(=O)CSc2ccc(S(=O)(=O)N3CCCCCC3)cc21 (stereo not given),1.1,0.86
O=C(Nc1cccc(C(F)(F)F)c1)c1cnc2sccn2c1=O,1.1,0.96
COc1cccc(-n2ccnc2SCC(=O)Nc2ccccc2C(F)(F)F)c1,0.92,-1.2
COc1ccc(NC(=O)c2sc3ncn(CC(=O)N4CCCCC4)c(=O)c3c2C)cc1OC,1,0.13
COc1cccc(-c2nc(-c3ccc(NC(=O)c4ccc5c(c4)OCO5)cc3)no2)c1,1,0.04
CCN(CC)CCNC(=O)c1cc2c(s1)CS(=O)(=O)C2,1.1,3
CCCCN(CCCC)S(=O)(=O)c1ccc2oc(C(=O)NCCc3ccccc3)c(C)c2c1,1.1,2.3
Cc1ccc(Nc2c3c(nc4ccc(Cl)cc24)CCC3)cc1F,1.1,0.17
COc1ccc(C2CC(=O)Nc3cc4c(cc32)OCO4)c(OC)c1 (stereo not given),1,1.9
COC(=O)c1nn2c(C(F)(F)F)cc(-c3ccc(C)cc3)nc2c1Cl,0.87,-1.7
CC(CCc1ccccc1)NC(=O)c1ccc2c(c1)NC(=O)c1ccccc1S2 (stereo not given),1,0.0017
CCOc1ccc2c(c1)C(c1ccccc1C(F)(F)F)CC(=O)N2 (stereo not given),1,0.15
CCCCNC(=O)c1ccc2c(c1)N(Cc1cc(C)ccc1C)C(=O)c1ccccc1S2(=O)=O,1,-0.031
COc1cc(OC)c(N(C)C(=O)Cn2ncc3c2-c2ccccc2OC3)cc1Cl,0.95,-1.4
CC1CCC(NC(=O)C2CCCN(S(=O)(=O)c3cccc4cccnc34)C2)CC1 (stereo not given),1,0.62
CCn1cc(CNC(=O)c2cc(-c3ccccc3)nc3ccccc23)c(C)n1,1.2,4.4

# Profiles from above:
# Entry for CCCCNC(=O)c1ccc2c(c1)N(Cc1cc(C)ccc1C)C(=O)c1ccccc1S2(=O)=O : CBX7 inh = 1; CBX7 inh z-score = -0.031
# Entry for COC(=O)c1nn2c(C(F)(F)F)cc(-c3ccc(C)cc3)nc2c1Cl : CBX7 inh = 0.87; CBX7 inh z-score = -1.7

# Further structures follow:
SMILES,CBX7 inh,CBX7 inh z-score
O=C(Nc1cccc(F)c1)C1CCCN(S(=O)(=O)c2cccs2)C1 (stereo not given),0.98,-0.3
CCOc1cccc2sc(NC(=O)c3ccc(S(=O)(=O)N4CC(C)OC(C)C4)cc3)nc12 (stereo not given),1.3,3
Cc1ccc(Cc2c(C)nc3c(C(=O)O)c[nH]n3c2=O)cc1,1.1,0.13
CCN(Cc1c(C)[nH]c2ccc(C)cc2c1=O)C1CCCCC1,1.2,3.6
CN(C(=O)Cc1c(C(=O)O)[nH]c2ccccc12)c1ccc(Cl)cc1,1,-0.084
CCCN(CCC)CCCNC(=O)c1cc(Nc2ccc(OC)c(OC)c2)nc2ccccc12,0.92,-1.6
Cc1ccc(NC(=O)c2ccc(CNc3c(N4CCC(C)CC4)c(=O)c3=O)cc2)cc1C,1,-0.1
Cc1cc(NC(=O)c2ccc(F)cc2)n(-c2nc3ccccc3[nH]2)n1,1,-0.051
CCc1ccc(CNC(=O)CCc2cn(Cc3ccccc3)c3ccccc23)cc1,0.97,-0.85
COc1cc(OC)cc(C(=O)Nc2ccc(Cl)c(-c3nc4ccccc4[nH]3)c2)c1,0.97,-0.98
OC(COc1ccc(Br)cc1)Cn1cnc(-c2ccccc2)c1 (stereo not given),1.1,1.4
CCc1ccc(-c2cc(C(=O)Nc3c(C)cccc3CC)c3ccccc3n2)cc1,1,0.061
Cc1oc(-c2cccc(Cl)c2)nc1CN1CCC(C(=O)NCc2cccs2)CC1,0.99,-0.19
Clc1ccc(OCCn2cnc3ccccc32)cc1,1,1.9
OC1COCc2nc3ccccc3n2C1 (stereo not given),1,0.45
CCCOc1ccc(N2C(=O)CC(N3CCCCC3CC)C2=O)cc1 (stereo not given),0.9,-1.7
CCC(C)[C@@H](C(=O)NCc1ccc(F)cc1)N1Cc2ccccc2C1=O (stereo not given in full),1,0.36
COc1ccc(NC(=O)c2oc3ccc(S(=O)(=O)N4CC(C)CC(C)C4)cc3c2C)cc1 (stereo not given),1,0.21
COc1cc(OC)cc(-c2nc3nc(C)c(CCC(=O)Nc4ccc(OC)c(OC)c4)c(C)n3n2)c1,1,0.093
O=C(CSc1ncnc2ccccc12)N1CCC(Cc2ccccc2)CC1,1,0.32

# 5 entries out of the list above, arranged by the number in CBX7 inh z-score, falling:
Compound,CBX7 inh z-score
CCc1ccc(-c2cc(C(=O)Nc3c(C)cccc3CC)c3ccccc3n2)cc1,0.061
Cc1cc(NC(=O)c2ccc(F)cc2)n(-c2nc3ccccc3[nH]2)n1,-0.051
Cc1ccc(NC(=O)c2ccc(CNc3c(N4CCC(C)CC4)c(=O)c3=O)cc2)cc1C,-0.1
Cc1oc(-c2cccc(Cl)c2)nc1CN1CCC(C(=O)NCc2cccs2)CC1,-0.19
CCCOc1ccc(N2C(=O)CC(N3CCCCC3CC)C2=O)cc1 (stereo not given),-1.7

# Continuation:
SMILES,CBX7 inh,CBX7 inh z-score
Cc1ccc(CCN2C(=O)Cn3cccc3C2C(=O)NC2CCCC2)cc1 (stereo not given),0.96,-0.71
CCN1CCN(C(=O)c2cc(C)n(-c3ccccc3)n2)CC1,1,1
CCCCC(C(=O)Nc1ccc(F)cc1)N1C(=O)c2ccccc2C1=O (stereo not given),0.91,-1.1
Cc1ccc(S(=O)(=O)N2CC=C(C(=O)NC3CCCCC3C)CC2)cc1 (stereo not given),0.97,-0.32
OC(CNCC1(c2ccccc2)CCCC1)COc1ccccc1Cl (stereo not given),0.9,-2.8
Cc1cccn2cc(-c3cccc(NC(=O)c4cccnc4)c3)nc12,1,0.053
COc1ccc(NC(=O)CSc2nccn2-c2cccc(C)c2)cc1,0.88,-4.7
Cc1ccc(-n2nc(C)c3c(C)c(CCC(=O)NCCCOC(C)C)c(C)nc32)cc1,1.2,1.6
CCCNC(=O)c1cc(-c2cccc(Cl)c2)on1,1.1,0.59
FC(F)(Cl)Oc1ccc(Nc2nnc(-c3ccccc3)c3ccccc23)cc1,0.97,-0.78
Cc1onc(-c2ccccc2)c1C(=O)Nc1nccs1,0.88,-0.14
CCCC1=Nc2cc(C(=O)NCCN(C)C3CCCCC3)ccc2Sc2ccccc21,0.92,-4.2
CCOCCCNC(=O)CC1Oc2ccc(C)cc2NC1=O (stereo not given),1.1,2.4
Cc1ccc(N2C(=O)c3ccccc3C2Nc2cc(F)ccc2F)nc1 (stereo not given),1,1.4
Cc1nc2c(-c3ccccc3)c(C)nn2c(C)c1CCC(=O)N1CCc2ccccc21,1.1,3.1
CCCC(=O)Nc1ccc(S(=O)(=O)Nc2ncccn2)cc1,1,0.33
Cc1ccc(-c2nnc(Nc3cccc(Cl)c3)c3ccccc23)cc1S(=O)(=O)NCCO,0.9,-2.8
COc1ccc(NC(=O)Cn2nc(Cc3ccncc3)c3ccccc3c2=O)cc1OC,0.97,-0.7
COC(CNC(=O)c1ccc2c(c1)NC(=O)c1ccccc1S2)OC,0.97,-0.27
COC(=O)c1ccc(NC(=O)Cn2c(-c3cncs3)nc3ccccc32)cc1,0.96,-0.46

# Quoted at random: 7 compounds from above, in no set order.
SMILES,CBX7 inh,CBX7 inh z-score
Cc1cccn2cc(-c3cccc(NC(=O)c4cccnc4)c3)nc12,1,0.053
Cc1ccc(CCN2C(=O)Cn3cccc3C2C(=O)NC2CCCC2)cc1 (stereo not given),0.96,-0.71
COc1ccc(NC(=O)Cn2nc(Cc3ccncc3)c3ccccc3c2=O)cc1OC,0.97,-0.7
Cc1ccc(N2C(=O)c3ccccc3C2Nc2cc(F)ccc2F)nc1 (stereo not given),1,1.4
CCN1CCN(C(=O)c2cc(C)n(-c3ccccc3)n2)CC1,1,1
Cc1ccc(-n2nc(C)c3c(C)c(CCC(=O)NCCCOC(C)C)c(C)nc32)cc1,1.2,1.6
FC(F)(Cl)Oc1ccc(Nc2nnc(-c3ccccc3)c3ccccc23)cc1,0.97,-0.78

# Other records follow.
SMILES,CBX7 inh,CBX7 inh z-score
CC(=O)Nc1ccccc1-c1nc2ccc(C(=O)NCc3ccccc3)cc2[nH]c1=O,1.1,1.4
COc1ccc(C(=O)Nc2cc(-c3nc4cc(C)cc(C)c4o3)ccc2C)cc1OC,1,0.26
COc1ccc(OC)c(CNC(=O)CCc2cn(Cc3ccccc3)c3ccccc23)c1,0.8,-3.4
CCCCNC(=O)C1CCN(Cc2nc(-c3cccc(Cl)c3)oc2C)CC1,0.9,-0.81
O=C(Cn1c2ccccc2n2ncnc12)c1ccc(Br)cc1,0.89,-1.2
CCc1ccc(NC(=O)c2cc(-c3ccc(O)cc3)on2)cc1,0.98,-0.56
CCC(=O)NC(C)c1nc2ccccc2n1CC(C)C (stereo not given),1,-0.11
CN(C)CCCNC(=O)c1ccc(-c2nn(C)c(=O)c3ccccc23)cc1,0.94,-0.58
O=C(CSc1nccn1-c1ccc(Cl)cc1)Nc1ccc(OC(F)(F)F)cc1,0.61,-1.4
Cc1nc2c(-c3ccc(F)cc3)c(C)nn2c(C)c1CCC(=O)NCCC1=CCCCC1,1,0.48
CCOc1cc2c(cc1OCC)C(c1ccc(F)c(OC)c1)NCC2 (stereo not given),1,0.015
O=C(CN1C(=O)COc2ccc(S(=O)(=O)N3CCCCCC3)cc21)NCc1ccccc1,1,-0.062

# Assay outcomes as filed in PubChem BioAssay.
